Cruzain inh Det – inhibitors of Trypanosoma cruzi cruzain with detergent. P25779. purified cruzain, Z-FR-AMC fluorescence, 0.01% Triton. Potency, µM, for the others: max response, negative = inhibition, actives largely listed as inhibitors. 200,000 compounds, 0.43% hits; active means well fitted curve in the direction sought with a large enough effect; inconclusive means small, poorly fitted or top-dose-only effect, or another doubt; inactive means no such curve, though single readings can be large; an effect the other way counts as inactive or inconclusive;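 further: plate controls were neutral wells for no effect and buffer without enzyme for full effect; nearly all actives have a fitted effect of over 40% in size; top concentration of the series not given in the record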
Target sequence (P25779 123-467 limits assumed): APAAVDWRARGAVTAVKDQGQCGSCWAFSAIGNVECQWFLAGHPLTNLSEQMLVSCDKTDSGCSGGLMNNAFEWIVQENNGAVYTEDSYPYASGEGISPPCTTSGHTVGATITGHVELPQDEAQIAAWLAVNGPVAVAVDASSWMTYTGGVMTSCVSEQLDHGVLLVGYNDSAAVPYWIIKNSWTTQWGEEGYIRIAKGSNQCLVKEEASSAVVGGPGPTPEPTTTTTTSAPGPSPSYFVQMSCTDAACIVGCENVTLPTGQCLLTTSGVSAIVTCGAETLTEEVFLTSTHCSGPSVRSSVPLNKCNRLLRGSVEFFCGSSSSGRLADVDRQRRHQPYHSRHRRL
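Steps: dispense cruzain (1.5 nM final) in acetate buffer pH 5.5 with DTT and 0.01% Triton X-100; pin-transfer compounds; incubate 15 min RT; add Z-FR-AMC (2 uM final); read fluorescence every 30 s, using the 60 s intensity change.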
SARS PLpro yeast – SARS-CoV PLP inhibition in yeast | S. cerevisiae expressing SARS-CoV PLpro, growth rescue; control for the full effect not named in the record | Potency, µM (top dose mostly 32.9 µM), inactives show at the top dose activity, positive = growth rescue | AID 485353 | 330,000 compounds, 0.19% hits; further: 0% is about no effect; nearly all actives have a fitted effect of over 55% in size; growth read by luminescence after 48 h
Marburg entry inh – Marburg virus entry inhibition; Marburg virus pseudotyped entry inhibition, cell reporter; control for the full effect not named in the record; about a third of the inactives were read at about 46 µM; Potency, µM (highest dose often 37.8 µM), inactives show at the highest dose activity change, negative = inhibition, actives largely listed as inhibitors; 300,000 compounds, 1.8% hits; active = well fitted inhibition curve with a large enough effect; inconclusive = small, poorly fitted or top-dose-only effect, or effect the other way; inactive = flat fitted curve, though single readings scatter; tested in HEK293 cells; about a fifth of its hits are not listed in these tables; further: on the % scale 0 is the no-effect control and ±100 the full control effect; luciferase read-out
NS1 function inh – influenza NS1 inhibition. S. cerevisiae slowed by influenza A NS1, growth recovery by OD600. Potency, µM (series often up to 46.1 µM), inactives show at the top dose activity, positive = more growth. 270,000 compounds, 0.4% hits; further: actives are rising curves; nearly all actives have a fitted effect of over 50% in size
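A cell-based growth assay was used: compounds that relieve NS1-induced slow growth of budding yeast raise OD600. Assay medium was yeast nitrogen base with ammonium sulphate and -URA supplement, pH 6.0, with 2% galactose.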
2A StopGo – FMDV 2A StopGo reporter, luciferase signal. human cells with a luciferase reporter of 2A StopGo recoding; control for the full effect not named in the record. Potency, µM (top dose mostly 57.9 µM), for inactives: at the highest dose signal change, negative = less light. 410,000 compounds, 1.2% hits. AID 1159524; active = well fitted falling curve with a large enough effect; inconclusive = small, poorly fitted or top-dose-only effect; inactive = no such curve, though single readings can be large or run the other way; tested in HEK293T cells; further: on the % scale 0 is the no-effect control and ±100 the full control effect; nearly all actives have a fitted effect of over 45% in size; luciferase light after 4 h
LASV entry inh – blocks Lassa virus binding to or entry into cells. Lassa virus pseudotype entry inhibition, cell reporter; control for the full effect not named in the record. 300,000 compounds, 1.2% hits. AID 540256. Potency, µM (doses to about 37.9 µM), inactives show at the top dose activity change, negative = inhibition, hits mostly inhibitors; active means well fitted inhibition curve with a large enough effect; inconclusive means small, poorly fitted or top-dose-only effect, or effect the other way; inactive means flat fitted curve, though single readings scatter; tested in HEK293 cells; further: on the % scale 0 is the no-effect control and ±100 the full control effect; nearly all actives have a fitted effect of over 50% in size; luciferase read-out
RE007 growth inh – less growth of the S. pombe RE007 Vpr strain. S. pombe RE007 Vpr strain, BacTiter-Glo ATP luminescence, 24 h; control for the full effect not named in the record. Potency, µM (highest dose often 92.2 µM), inactives show at the top dose activity change, negative = less growth. 360,000 compounds, 0.21% hits; active = well fitted falling curve with a large enough effect; inconclusive = small, poorly fitted or top-dose-only effect; inactive = no such curve, though single readings can be large or run the other way;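 further: on the % scale 0 is the no-effect control and ±100 the full control effect; nearly all actives have a fitted effect of over 50% in size; the assay follows cell death caused by Vpr and the record does not say whether a fall means rescue or toxicity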
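Fission yeast strain RE007, carrying one chromosomally integrated HIV-1 vpr copy, was seeded at OD 0.01 in PMG+AL medium with 23 nL pinned compound. After 24 h at 30 °C and 99% humidity, viability was read by BacTiter-Glo luminescence.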
Cruzain noTriton – cruzain (T. cruzi) inhibition without detergent; purified cruzain, Z-FR-AMC fluorescence, no detergent; Potency, µM, for the others: max response, negative = inhibition, usual class: inhibitors; P25779; 200,000 compounds, 2.3% hits; active means well fitted curve in the direction sought with a large enough effect; inconclusive means small, poorly fitted or top-dose-only effect, or another doubt; inactive means no such curve, though single readings can be large; an effect the other way counts as inactive or inconclusive;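 further: plate controls were enzyme without inhibitor for no effect and buffer without enzyme for full effect; nearly all actives have a fitted effect of over 40% in size; top concentration of the series not given in the record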
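Purified cruzain at 1.5 nM, pre-incubated 15 min with compound at room temperature in 100 mM sodium acetate pH 5.5, 5 mM DTT, 0.00005% Triton X-100. Reaction started with 2 uM Z-FR-AMC; AMC fluorescence increase over 60 s gives rate.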
* = called active by the depositor; ? = inconclusive; / = no result given; & = joins results of further samples; ! = not confirmed by another sample; [ ] = remark or other dose. Unless noted, the call rests on the fitted dose curve; in most records, active means well fitted rising curve with a large enough effect; inconclusive means small, poorly fitted or top-dose-only effect; inactive means no such curve, though single readings can be large or run the other way. Potency means the concentration at half of the fitted maximal effect.

SMILES	Cruzain inh Det	SARS PLpro yeast	Marburg entry inh	NS1 function inh	2A StopGo	LASV entry inh	RE007 growth inh	Cruzain noTriton
CCCOc1ccc2c(c1)C(=NN=C(N)N)c1cc(OCCC)ccc1-2	/	-2%	?	6%	-1%	?	54%	/
Cc1cc(C)c2nc(N3CCOCC3)c(C#N)cc2c1	/	-3%	?	-31%	-22%	-9%[46.1 µM]	-12%	/
Cc1ccc(NC2=C(Cl)C(=O)OC2OC(C)C)c(C)c1 (stereo unspecified)	1.4%	9%	-23%	-13%	-9%	19%	0%	4%
NS(=O)(=O)c1cccc(NC(=O)COC(=O)C2CCCCC2)c1	/	7%	-6%[46.1 µM]	/	14%	1%[46.1 µM]	0%	/
Cc1ccc(C(=O)NC(=S)Nc2ccc3[nH]c(=O)[nH]c3c2)c(C)c1	/	1%	/	-1%	-14%	/	-1%	/
COc1ccc(/C=C/C(=O)OCC(=O)Nc2ccc3[nH]c(=O)[nH]c3c2)cc1OC	/	0%	-16%	/	1%	?	-10%	/
OCC1(Cc2ccccc2)CCN(Cc2cc3ccccc3o2)CC1	/	0%	?	-7%	-14%	2%[46.1 µM]	-2%	/
CCC(=O)NC(NC(=S)Nc1cccc2cccnc12)C(Cl)(Cl)Cl (stereo unspecified)	-4.1%	0%	?	7%	10%	-3%	3%	-3%
CS(=O)(=O)c1ccccc1C(=O)N(CCC1=CCCCC1)c1c(N)n(Cc2ccccc2)c(=O)[nH]c1=O	/	5%	?	/	-23%	?	-2%	/
Cc1ccc(C)c(C2C(C#N)=C(N)Oc3cc(C)oc(=O)c32)c1 (stereo unspecified)	-0.5%	5%	-11%	7%	-24%	-23%	22%	5%
COc1ccc(C2CC(=O)Nc3c2c(=O)nc2c(C)cccn32)cc1 (stereo unspecified)	-1.0%	/	0%[46.1 µM]	/	8%	-1%[46.1 µM]	/	1%
O=C1Nc2ccc(Br)cc2C12NNc1ccccc1O2 (stereo unspecified)	/	-26%	/	-22%	20%	/	0%	/
COC(=O)[C@@H]1C[C@@]2(O)[C@@H](O)[C@@H](O)[C@@H](O)C[C@H]2N1Cc1ccc(C(F)(F)F)cc1	-0.5%	0%	/	-5%	-11%	/	-1%	-4%
CN(C(=O)COC(=O)c1ccccc1Cc1ccccc1)C1CCS(=O)(=O)C1 (stereo unspecified)	/	-4%	20%[46.1 µM]	-8%	7%	-12%[46.1 µM]	-2%	/
O=C(CCCCCNc1nc(=S)[nH]c2ccccc12)NCCC1=CCCCC1	/	4%	-9%[46.1 µM]	8%	-4%	?	-8%	/
CC(C)[N+](C)(CCOC(=O)C1c2ccccc2Oc2ccccc21)C(C)C	2.8%&1.9%&2.7%&0.6%	0%	?	-3%&-7%	?	8%&-4%	-7%[18.4 µM]	-2%&3%&-7%&-8%
COc1cc2c(c(OCC(=O)NC(C)C)c1)C(=O)O[C@@H](C)CCCC(=O)CCCCC2	/	-2%	/	0%	?	/	15%	/
O=C(C1=C[C@H](c2csc3ccccc23)C[C@H](OCCCCO)O1)N1CCOCC1	/	-2%	/	-2%	3%	/	-4%	/
CCC(=O)N(CCN1CCOCC1)Cc1cc2cc3c(cc2nc1Cl)OCO3	/	0%	-15%	-8%	-21%	2%	8%	/
COc1cccc(NC(=O)N2CCC(NC(=O)C(Cc3cccc(C)c3)NC(C)=O)CC2)c1 (stereo unspecified)	/	1%	?	0%	17%	-16%[46.1 µM]	-3%	/
CN(C)c1cc[n+](CCC(=O)Nc2cccc([N+](=O)[O-])c2N)cc1	-4.1%	-28%	12%	-5%	12%	-5%	-11%	0%
Nc1ccc(N=Nc2ccc(O)cc2)c(N)n1	/	/	?	/	-8%	?	-23%	/
CCCCNC(=S)N(C)/N=C/c1ccc(OCC(=O)Nc2c(C)cc(C)cc2C)c(OC)c1	-13%	-2%	-39%	10%	?	-5%	0%	4%
Cc1cc(NC(=O)CSc2nc(C)c(C)n2CC(C)C)no1	/	-3%	0%[46.1 µM]	/	-10%	?	-11%	/
COc1ccc(-c2noc(-c3ccc4c(c3)OCO4)n2)cc1	2.5%	5%	?	2%	26%	-9%	-11%	-6%
The list goes on:
SMILES	Cruzain inh Det	SARS PLpro yeast	Marburg entry inh	NS1 function inh	2A StopGo	LASV entry inh	RE007 growth inh	Cruzain noTriton
COc1cc2c(cc1O)CC1c3c(cc(O)c(OC)c3-2)CCN1C (stereo unspecified)	-3.5%&-1.1%	-2%&-2%	/	7%&-2%	1%&-7%	/	-6%	32µM*!
CCC1([N+](=O)[O-])COP(=O)(NCc2cccnc2)OC1 (stereo unspecified)	/	/	16%	/	-19%	13%[46.1 µM]	-1%	/
Cc1cc(-c2n[nH]c(=S)n2/N=C/c2ccccc2[N+](=O)[O-])n[nH]1	-4.7%	24%	-13%	17%	-26%	4%	4%	-9%
CCC(=O)N1CCN(c2ccccc2NC(=O)COc2ccccc2Cl)CC1	-4.3%	-9%	?	-77%	/	4%	-13%	10%
Cn1nc(C(F)(F)F)c(C(=O)Nc2ccc(F)cc2F)c1Sc1ccc(Cl)cc1	-2.8%	1%	2%	8%	-25%	0%	9%	-2%
O=C(CN1C(=O)c2ccccc2S1(=O)=O)Nc1ccccc1	4.2%	-1%	?	-51%	35%[activator]	-27%	-5%	-17%
O=C(CCNS(=O)(=O)c1ccc(OC(F)(F)F)cc1)NCCc1c[nH]c2ccccc12	/	0%	?	/	-7%	-27%	-5%	/
C=CCc1cc(/C=C2/NC(=S)NC2=O)cc(OC)c1O	-0.8%	-4%	-6%	7%	-25%	0%	8%	4%
CCc1ccccc1Nc1nc2ccccc2n2cnnc12	-5.9%	/	13%[46.1 µM]	/	-24%	7%[46.1 µM]	/	9%
COc1ccccc1-n1c(=S)[nH]c2c(sc(=S)n2-c2ccc(C)cc2C)c1=O	/	2%	-1%[46.1 µM]	/	-29%	-4%[46.1 µM]	-11%	/
NC(=O)c1ccc(NC(=O)CSc2nnc(-c3ccncc3)n2Cc2ccco2)cc1	/	-1%	?	-1%	-14%	10%	-1%	/
Cc1ccc(NC(=O)c2ccc(NCCCN3CCC(C)CC3)c([N+](=O)[O-])c2)cc1F	/	-2%	?	/	-3%	-10%	?	/
CC(C)c1ccc(CNC(=O)C(=O)NCC2CCCO2)cc1 (stereo unspecified)	/	1%	?	/	-4%	/	-16%	/
CCOc1ccccc1NC(=O)C1CCN(S(=O)(=O)c2c(C)noc2/C=C/c2ccc(C)cc2)CC1	-1.7%	/	/	/	-24%	17%[46.1 µM]	/	-8%
Cc1nc2ccccc2c(=O)n1-c1ccc(NC(=O)c2ccc([N+](=O)[O-])cc2)cc1	-2.1%	/	/	/	?	13%[46.1 µM]	/	-25%
CCN(CC)c1nc(C)nc2c1sc(=S)n2C	/	4%	9%[46.1 µM]	/	-24%	4%	5%	/
O=C(Nc1ccc2[nH]ncc2c1)c1ccccc1Cl	/	-2%	?	-2%	-12%	?	-9%	/
Oc1cccc2ccc(Nc3ccccn3)nc12	-6.8%	-22%	?	-82%	0%	23µM*	?	-4%
Cc1ccn2c(=O)nc(SCC(=O)N3CCCc4ccccc43)nc2c1	/	2%	4%	/	4%	18%	13%	/
Cn1c(=O)c2c(O)cc(=O)[nH]c2n(-c2ccccc2)c1=O	-1.2%	4%	0%[46.1 µM]	10%	-11%	?	10%	1%
CCOC(=O)c1sc(N2C(=O)C(O)=C(C(=O)c3ccc(C)o3)C2c2cccc([N+](=O)[O-])c2)nc1C (stereo unspecified)	/	2%	/	?	-14%	/	-7%	/
O=C1CCC(=O)N1CN(Cc1ccco1)CN1C(=O)CCC1=O	4.3%	-3%	?	6%	-1%	-20%	-1%	-5%
O=C(NC(NCC1CCCO1)C(Cl)(Cl)Cl)c1cccc2ccccc12 (stereo unspecified)	-4.6%	1%	-3%	-2%	-13%	-23%	-2%	-2%
O=C(CCc1nnc(Cc2ccc(-c3ccccc3)cc2)o1)NCCc1ccccn1	/	1%	13%[46.1 µM]	-4%	-12%	-3%[46.1 µM]	-6%	/
Cc1ccc(S(=O)(=O)N2CCN(C(=O)N(c3ccccc3)c3ccccc3)CC2)cc1	0.4%	0%	18µM*	-4%	0%	?	6%	3%
CCOc1ccc(-n2ccnc(SCC(=O)NCCc3ccccc3)c2=O)cc1	/	-2%	?	/	-9%	-7%	3%	/
O=C1NC(SCCCF)=N/C1=C/c1ccc(-n2cncn2)cc1	/	0%	2%[46.1 µM]	6%	-21%	?	-3%	/
Cc1ccsc1C1C(C#N)=C(N)OC2=C1C(=O)CC(C)(C)C2 (stereo unspecified)	/	5%	-15%[46.1 µM]	/	-24%	-3%	-11%	/
Cc1ccc(Nc2ccc([N+](=O)[O-])ccc2=O)cc1	/	/	9%[46.1 µM]	/	34%	-1%	-20%	/
O=C(c1ccccc1)N1c2ncnn2C2(CCCCC2)[C@@H]2CCCC[C@@H]21	-0.1%	/	-8%[46.1 µM]	/	?	-25%[46.1 µM]	/	6%

Not a retest: an excerpt of the list.
SMILES	Cruzain inh Det	SARS PLpro yeast	Marburg entry inh	NS1 function inh	2A StopGo	LASV entry inh	RE007 growth inh	Cruzain noTriton
COc1cc2c(cc1O)CC1c3c(cc(O)c(OC)c3-2)CCN1C (stereo unspecified)	-3.5%&-1.1%	-2%&-2%	/	7%&-2%	1%&-7%	/	-6%	32µM*!
CCC1([N+](=O)[O-])COP(=O)(NCc2cccnc2)OC1 (stereo unspecified)	/	/	16%	/	-19%	13%[46.1 µM]	-1%	/

As entered above:
Under LASV entry inh, `CCOc1ccccc1NC(=O)C1CCN(S(=O)(=O)c2c(C)noc2/C=C/c2ccc(C)cc2)CC1` has 17%[46.1 µM]
Under LASV entry inh, `CCOc1ccc(-n2ccnc(SCC(=O)NCCc3ccccc3)c2=O)cc1` has -7%
Under 2A StopGo, `NC(=O)c1ccc(NC(=O)CSc2nnc(-c3ccncc3)n2Cc2ccco2)cc1` has -14%
Under LASV entry inh, `C=CCc1cc(/C=C2/NC(=S)NC2=O)cc(OC)c1O` has 0%

From PubChem
